# Bioassay records: PubChem BioAssay, Broad Institute
# STAT3 SMM: binders of human STAT3. 17,000 compounds, 0.2% hits. Small molecule microarray, His-STAT3 binding, anti-His fluorescence. calls only. P40763. AID 624138;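 active = compounds whose four printed spots each show fluorescence over background unusually high for their array block, chance value under 7%; compounds were printed on slides so no solution concentration is given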;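 also: about 2 pmol printed per array spot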
# Target sequence (P40763 whole entry, looked up): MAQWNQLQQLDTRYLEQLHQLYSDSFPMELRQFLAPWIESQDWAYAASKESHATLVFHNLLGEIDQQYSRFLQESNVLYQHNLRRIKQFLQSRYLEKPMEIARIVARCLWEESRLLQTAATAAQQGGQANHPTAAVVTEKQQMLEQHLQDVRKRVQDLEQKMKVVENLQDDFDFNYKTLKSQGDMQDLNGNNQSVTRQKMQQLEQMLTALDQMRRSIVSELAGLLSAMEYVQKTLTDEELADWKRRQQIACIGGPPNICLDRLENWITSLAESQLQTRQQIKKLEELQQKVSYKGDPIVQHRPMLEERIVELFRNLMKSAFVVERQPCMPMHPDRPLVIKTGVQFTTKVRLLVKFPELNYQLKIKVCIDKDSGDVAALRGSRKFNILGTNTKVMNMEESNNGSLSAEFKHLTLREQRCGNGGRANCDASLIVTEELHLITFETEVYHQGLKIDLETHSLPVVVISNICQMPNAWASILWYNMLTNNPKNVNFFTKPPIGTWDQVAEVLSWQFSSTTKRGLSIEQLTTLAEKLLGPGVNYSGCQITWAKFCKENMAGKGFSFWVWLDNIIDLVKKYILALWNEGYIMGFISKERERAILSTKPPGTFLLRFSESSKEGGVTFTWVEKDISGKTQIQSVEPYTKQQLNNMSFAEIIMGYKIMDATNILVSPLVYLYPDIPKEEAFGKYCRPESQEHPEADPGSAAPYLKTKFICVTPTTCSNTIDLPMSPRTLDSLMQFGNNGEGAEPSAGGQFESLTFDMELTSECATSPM
# Myc binder: c-Myc (human) binding; small molecule microarray, His-c-Myc binding, anti-His fluorescence; P01106; 17,000 compounds, 1.5% hits; AID 624141; calls only;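 active = spot fluorescence over background with P-value below 7% in all four replicate spots, showing protein binding; compounds were printed on slides so no solution concentration is given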;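 also: score is binary with 100 for all four spots passing and 0 otherwise; about 2 pmol printed per array spot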
# p53 mut binder: binds human mutant p53 on microarray. 17,000 compounds, 0.4% hits. calls only. small molecule microarray binding, anti-GST fluorescence;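 active = compounds whose four printed spots each glow above background more than chance allows, each with a p-value under 7%; compounds were printed on slides so no solution concentration is given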;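 also: about 2 pmol printed per array spot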
# ID4 SMM: binds human ID4 protein on microarray; P47928; calls only; small molecule microarray, Flag-ID4 binding, fluorescence F/B; 31,000 compounds, 1.2% hits; AID 624137;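 active = spot signal over background at p below 0.07 in all four prints; compounds were printed on slides so no solution concentration is given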;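 also: a binder raises fluorescence above local background on the spot; about 2 pmol printed per array spot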
# Target sequence (P47928 whole entry, looked up): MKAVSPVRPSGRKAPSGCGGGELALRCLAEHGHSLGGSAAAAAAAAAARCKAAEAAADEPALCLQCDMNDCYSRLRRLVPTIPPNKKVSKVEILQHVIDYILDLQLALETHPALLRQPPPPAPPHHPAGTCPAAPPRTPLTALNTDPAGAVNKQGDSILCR
# Calls only; i = inactive; / = not tested or not shown; + = active, no number.
SMILES,STAT3 SMM,Myc binder,p53 mut binder,ID4 SMM
COc1ccc(CN(C)C[C@H]2Oc3ccc(NS(=O)(=O)c4ccc(Cl)cc4)cc3CC(=O)N([C@@H](C)CO)C[C@H]2C)cc1,i,i,i,i
C[C@H](CO)N1C[C@H](C)[C@H](CN(C)C(=O)Nc2ccc3c(c2)OCO3)Oc2ccc(NC(=O)c3ccncc3)cc2C1=O,i,i,i,i
O=C(COc1ccc(C(=O)Nc2ccccc2Cl)cc1)Nc1ccccc1C(F)(F)F,i,i,i,i
CC(C)NC(=O)Nc1ccc2c(c1)C(=O)N([C@@H](C)CO)C[C@@H](C)[C@H](CN(C)S(=O)(=O)c1cccs1)OCCCC[C@H](C)O2,i,i,i,i
C[C@H]1CN([C@@H](C)CO)C(=O)Cc2cc(NC(=O)C3CC3)ccc2O[C@H]1CN(C)Cc1ccc(Cl)c(Cl)c1,i,i,i,i
C[C@H](CO)N1C[C@H](C)[C@@H](CN(C)C(=O)Nc2cccc3ccccc23)Oc2c(NC(=O)C3CCOCC3)cccc2C1=O,i,i,i,i
COc1cc([N+](=O)[O-])ccc1NC(=O)CSc1ncccn1,i,i,i,i
COc1ccccc1NC(=O)N(C)C[C@H]1OCc2cnnn2CCCC(=O)N([C@@H](C)CO)C[C@@H]1C,i,i,i,i
C[C@@H]1CN([C@@H](C)CO)C(=O)c2cc(NC(=O)Cn3cnnn3)ccc2O[C@@H]1CN(C)S(=O)(=O)c1cccs1,i,i,i,i
COc1cccc(OCC(=O)Nc2ccc(Sc3ccc([N+](=O)[O-])cc3)cc2)c1,i,i,i,i
C[C@H]1CN([C@@H](C)CO)C(=O)c2cccc(NC(=O)c3nc4ccccc4s3)c2O[C@@H]1CN(C)CC1CC1,i,i,i,i
COc1ccc(NC(=O)Nc2ccc3c(c2)CC(=O)N([C@@H](C)CO)C[C@@H](C)[C@@H](CN(C)S(C)(=O)=O)O3)cc1,i,i,i,i
C[C@@H]1CN([C@@H](C)CO)C(=O)CCCn2cc(nn2)CO[C@H]1CN(C)Cc1ccc2c(c1)OCCN2C,i,i,i,i
Cc1c(O)ccc(-c2[nH]ncc2-c2nncn2-c2ccccc2)c1O,i,i,i,i
C[C@@H]1CCCCO[C@H](CN(C)C(=O)Nc2ccc(F)cc2)[C@H](C)CN([C@H](C)CO)C(=O)c2cc(NS(=O)(=O)c3ccccc3)ccc2O1,i,i,i,i
Cc1noc(C)c1S(=O)(=O)N(C)C[C@H]1Oc2ccc(NC(=O)Nc3ccc(F)cc3)cc2CC(=O)N([C@@H](C)CO)C[C@@H]1C,i,i,i,i
O=C1NC(Cc2c[nH]c3ccccc23)C(=O)N2CCCC12 (configuration not stated),i,i,i,i
Cc1ccc(-c2csc3ncnc(SCC(=O)Nc4ccccc4C(C)C)c23)cc1,i,i,i,i
CNC[C@H]1OCCCC[C@@H](C)Oc2ccc(NC(=O)CCC(F)(F)F)cc2C(=O)N([C@H](C)CO)C[C@@H]1C,i,i,i,/
COc1ccccc1CNC(=O)c1ccccc1N(C)S(C)(=O)=O,i,i,i,i
C[C@@H]1CN([C@H](C)CO)C(=O)c2cc(NC(=O)Cc3ccccc3)ccc2O[C@@H]1CN(C)C(=O)Nc1ccccc1,i,i,i,i
COc1ccccc1NC(=O)C1=C(C)NC(=S)NC1c1ccccc1OCC(=O)O (configuration not stated),i,i,i,i
COc1ccc(S(=O)(=O)N(C)C[C@@H]2Oc3c(NC(=O)Nc4ccccc4)cccc3C(=O)N([C@@H](C)CO)C[C@@H]2C)cc1,i,i,i,/
C[C@@H]1CN([C@H](C)CO)C(=O)c2cc(NS(C)(=O)=O)ccc2O[C@@H](C)CCCCO[C@H]1CN(C)C(=O)Nc1ccccc1,i,i,i,i
O=C(CSc1nnc(-c2ccccc2)n1C1CCCCC1)Nc1ccccc1,i,i,i,i
N#C/C(=C(/N)Sc1ccc(N)cc1)c1ccccc1C(F)(F)F,i,i,i,i
Cc1nn(Cc2ccc(C(=O)NC3CCCCC3)o2)c(C)c1Br,i,i,i,i
CNC[C@H]1Oc2ccc(N(C)C)cc2C(=O)N([C@H](C)CO)C[C@@H]1C,i,i,i,i
CC(=O)O[C@@H]1[C@@H](O)[C@H](C)O[C@@H](O[C@H]2[C@@H]3C=CO[C@@H](O[C@@H]4O[C@H](CO)[C@@H](O)[C@H](O)[C@H]4O)[C@@H]3[C@@]3(CO)O[C@@H]23)[C@@H]1OC(=O)/C=C/c1ccccc1,i,i,i,i
Cc1noc(C)c1S(=O)(=O)Nc1cccc2c1O[C@H](CN(C)C(=O)NC1CCCCC1)[C@H](C)CN([C@@H](C)CO)C2=O,i,i,i,i
Cc1nc(SCc2cccc(C(=O)O)c2)nc2c1CCCC2,i,i,i,i
COc1cc(/C=C/CO)ccc1OC/C=C(\C)CCC=C(C)C,i,i,i,/
C[C@@H]1CCCCO[C@H](CN(C)C(=O)Cc2ccccc2)[C@@H](C)CN([C@H](C)CO)C(=O)c2cc(NC(=O)c3ccncc3)ccc2O1,i,i,i,i
C[C@H](CO)N1C[C@H](C)[C@H](CN(C)C(=O)Nc2ccc3c(c2)OCO3)Oc2ccc(NS(C)(=O)=O)cc2C1=O,i,i,i,i
C[C@H]1CN([C@@H](C)CO)C(=O)c2cccc(NS(=O)(=O)c3cccs3)c2O[C@@H]1CN(C)Cc1ccc(C(F)(F)F)cc1,i,i,i,i
Cc1ccc(NC(=O)CSCC(N)=O)cc1C,i,i,i,i
Cn1c(=O)n(CC(=O)Nc2cccnc2)c2ccccc21,i,i,i,i
O=C1O[C@H](c2ccccc2)[C@H](c2ccccc2)N2[C@H]1[C@@H](C(=O)N1CCN(c3ncccn3)CC1)[C@]1(C(=O)Nc3ccccc31)[C@H]2c1ccc(OCCO)cc1,i,i,i,/
C[C@@H]1CN([C@@H](C)CO)C(=O)Cc2cc(N(C)C)ccc2O[C@@H]1CN(C)S(=O)(=O)c1ccccc1,i,i,i,i
Cc1noc(C)c1NC(=O)Nc1cccc2c1O[C@@H](CN(C)Cc1ccc(-c3ccccc3)cc1)[C@H](C)CN([C@@H](C)CO)C2=O,i,i,i,/
C=CC[C@@]1(C(=O)N2CCOCC2)N=C(c2ccc(OCCCO)cc2)O[C@@H]1c1ccccc1,i,i,i,i
C[C@@H]1CN([C@H](C)CO)C(=O)c2cccc(NC(=O)C3CCOCC3)c2O[C@H]1CN(C)C(=O)Nc1ccc(F)cc1,i,i,i,i
COCCOC(=O)N1C(=O)[C@@]2(c3ccccc31)[C@H](c1ccc(O)cc1)N1[C@H](c3ccccc3)[C@H](c3ccccc3)OC(=O)[C@H]1[C@@H]2C(N)=O,i,i,i,i
CCCC(O)/C(=C/C1=C(C(=O)CC(CC(=O)O)OC(N)=O)C(=O)c2cccc(O)c2C1=O)CC(C(=O)O)[N+](C)(C)C (configuration not stated),i,i,i,/
Cc1noc(C)c1S(=O)(=O)N(C)C[C@@H]1OCCCC[C@H](C)Oc2ccc(NC(=O)NC(C)C)cc2C(=O)N([C@H](C)CO)C[C@H]1C,i,+,i,i
NC(=O)C1CCCN(/[N+]([O-])=N/OCCBr)C1 (configuration not stated),i,i,i,+
CC(C)NC(=O)N(C)C[C@@H]1Oc2ccc(NS(=O)(=O)c3cn(C)cn3)cc2CC(=O)N([C@H](C)CO)C[C@H]1C,i,i,i,i
COc1ccc(-c2nnc(SCC(=O)Nc3ccc4cn[nH]c4c3)n2-c2ccc(Cl)cc2)cc1,i,i,i,i
COc1ccc(S(=O)(=O)Nc2ccc3c(c2)CC(=O)N([C@H](C)CO)C[C@H](C)[C@H](CN(C)S(=O)(=O)c2cn(C)cn2)O3)cc1,i,i,i,i
C=CCN1Cc2ccccc2[C@@H]2OC(c3ccc(OCCCO)cc3)=N[C@]2(CCC(=O)OC(C)(C)C)C1=O,i,i,i,i
C[C@H](CO)N1C[C@H](C)[C@H](CN(C)S(=O)(=O)c2ccc(C#N)cc2)OCc2cnnn2CCCC1=O,i,i,i,i
C[C@H](CO)N1C[C@H](C)[C@@H](CN(C)C(=O)Nc2ccccc2)Oc2ccc(NS(C)(=O)=O)cc2C1=O,i,i,i,+
COc1ccc(C2C(C(=O)c3cccs3)C(=O)C(=O)N2CCCN2CCOCC2)cc1 (configuration not stated),i,i,i,i
COc1ccc2cc(Br)ccc2c1CC(=O)Nc1cccnc1,i,i,i,i
C[C@@H]1CN([C@H](C)CO)C(=O)c2cc(NC(=O)CCN3CCOCC3)ccc2O[C@@H]1CN(C)C(=O)Nc1ccccc1,i,i,i,i
C[C@@H]1C=C(C(=O)N2CCCCCCC2)O[C@H](OCc2ccc(CO)cc2)C1,i,i,i,i
CC(C)NC(=O)Nc1ccc2c(c1)C(=O)N([C@@H](C)CO)C[C@@H](C)[C@H](CN(C)C(=O)Cc1ccccc1)OCCCC[C@H](C)O2,i,i,i,i
C[C@@H]1CN([C@H](C)CO)C(=O)c2cc(NC(=O)CCCN(C)C)ccc2O[C@@H]1CN(C)C(=O)Nc1cccc2ccccc12,i,i,i,i
COc1ccc(CN(C)C[C@@H]2Oc3ccc(NC(=O)CCN4CCOCC4)cc3C(=O)N([C@H](C)CO)C[C@H]2C)cc1,i,i,i,i
C[C@@H]1CN([C@H](C)CO)C(=O)c2cccc(N(C)C)c2O[C@@H]1CN(C)C(=O)Nc1ccc(C(F)(F)F)cc1,i,i,i,i

# Whole records, quoted from the list. Order of values: STAT3 SMM	Myc binder	p53 mut binder	ID4 SMM
# Record of `COCCOC(=O)N1C(=O)[C@@]2(c3ccccc31)[C@H](c1ccc(O)cc1)N1[C@H](c3ccccc3)[C@H](c3ccccc3)OC(=O)[C@H]1[C@@H]2C(N)=O` → i	i	i	i
# Record of `C[C@@H]1CN([C@H](C)CO)C(=O)c2cccc(NC(=O)C3CCOCC3)c2O[C@H]1CN(C)C(=O)Nc1ccc(F)cc1` → i	i	i	i
# Record of `COc1ccc(C2C(C(=O)c3cccs3)C(=O)C(=O)N2CCCN2CCOCC2)cc1` (configuration not stated) → i	i	i	i
# Record of `C[C@H](CO)N1C[C@H](C)[C@@H](CN(C)C(=O)Nc2ccccc2)Oc2ccc(NS(C)(=O)=O)cc2C1=O` → i	i	i	+
# Record of `C[C@@H]1C=C(C(=O)N2CCCCCCC2)O[C@H](OCc2ccc(CO)cc2)C1` → i	i	i	i

# The list continues.
SMILES,STAT3 SMM,Myc binder,p53 mut binder,ID4 SMM
CC(C)=CCC/C(C)=C/CCC1(C)Oc2c(c(O)cc3c2CN(C(CCC(=O)O)C(=O)O)C3=O)CC1O (configuration not stated),i,i,i,/
CC(C)C(NS(=O)(=O)c1ccc(-c2ccc(Br)cc2)cc1)C(=O)O (configuration not stated),i,i,i,i
C[C@@H]1CN([C@H](C)CO)C(=O)c2cc(NC(=O)CCCN(C)C)ccc2O[C@@H]1CN(C)C(=O)Nc1ccccc1,i,i,i,+
C[C@H]1CN([C@@H](C)CO)C(=O)c2cccc(NS(=O)(=O)c3cn(C)cn3)c2O[C@H]1CN(C)Cc1ccc(Cl)c(Cl)c1,i,i,i,i
Cc1noc(C)c1NC(=O)N(C)C[C@@H]1OCCCC[C@H](C)Oc2ccc(NC(=O)Cc3ccccc3)cc2C(=O)N([C@H](C)CO)C[C@@H]1C,i,i,i,i
CCOC(=O)Oc1c(OC)cc(C(=O)O[C@@H]2C[C@@H]3CN4CCc5c([nH]c6cc(OC)ccc56)[C@H]4C[C@@H]3[C@H](C(=O)OC)[C@H]2OC)cc1OC,i,i,i,i
CNC[C@@H]1OCCCC[C@H](C)Oc2ccc(NC(=O)NC(C)C)cc2C(=O)N([C@H](C)CO)C[C@H]1C,i,i,i,i
CCOc1ccccc1NC(=O)C1C2C=CC(C2)C1C(=O)O (configuration not stated),i,i,i,i
C[C@H](CO)N1C[C@H](C)[C@H](CN(C)C(=O)c2ccncc2)OCCCC[C@H](C)Oc2ccc(NS(=O)(=O)c3cccs3)cc2C1=O,i,i,i,i
C[C@@H]1CN([C@@H](C)CO)C(=O)c2cccc(NC(=O)c3ccncc3)c2O[C@H]1CN(C)S(=O)(=O)c1cccs1,i,i,i,i
C[C@H]1CN([C@@H](C)CO)C(=O)c2cc(NC(=O)NC3CCCCC3)ccc2O[C@H]1CN(C)C(=O)Nc1cccc2ccccc12,i,i,i,i
Cc1ccc(C(=O)NC2(C(F)(F)F)C(=O)N(Cc3ccccn3)C3=C2C(=O)CC(C)(C)C3)cc1 (configuration not stated),i,i,i,i
Cc1cc(C)cc(N(CC(=O)Nc2ccc(Br)c(Cl)c2)S(C)(=O)=O)c1,i,i,i,i
COc1ccc(NC(=O)Nc2ccc3c(c2)C(=O)N([C@H](C)CO)C[C@H](C)[C@@H](CN(C)Cc2ccc(C(=O)O)cc2)O3)cc1,i,i,i,i
C[C@@H]1O[C@@H](O[C@H]2[C@H](O[C@H]3CC[C@@]4(C)C(CC[C@]5(C)C4CC=C4C6CC(C)(C)CC[C@]6(C(=O)O[C@@H]6O[C@H](CO[C@@H]7O[C@H](CO)[C@@H](O[C@@H]8O[C@@H](C)[C@H](O)[C@@H](O)[C@H]8O)[C@H](O)[C@H]7O)[C@@H](O)[C@H](O)[C@H]6O)CC[C@]45C)C3(C)C)OC[C@H](O)[C@@H]2O)[C@H](O)[C@H](O)[C@H]1O (some centres not stated),i,i,i,i

# Given with two lines to a compound: entries from further up.
# Each structure is followed by: STAT3 SMM	Myc binder	p53 mut binder	ID4 SMM
> Cc1noc(C)c1NC(=O)Nc1cccc2c1O[C@@H](CN(C)Cc1ccc(-c3ccccc3)cc1)[C@H](C)CN([C@@H](C)CO)C2=O
    i	i	i	/
> C=CC[C@@]1(C(=O)N2CCOCC2)N=C(c2ccc(OCCCO)cc2)O[C@@H]1c1ccccc1
    i	i	i	i
